AF4-AF9 inh: blocks AF4 peptide binding to human AF9; P42568; AlphaScreen, biotin-AF4 peptide binding to FLAG-AF9; inhibition, % at 10 µM; actives 0.47% (n = 350,000); AID 651704;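 active = every replicate reaching a set inhibition limit, whatever the replicate mean, cut at about 25% in these data; inconclusive = mean inhibition reaches that limit but some replicates miss it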;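 note: 0% = plate neutral control median and 100% = total signal loss; the record names both 10 and 1 µM as test concentration; the first replicate is given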
Vif TR-FRET: inhibitors of Vif binding to APOBEC3G peptide, primary screen, biochemical, TR-FRET, GST-Vif 1-94, biotin-A3G peptide, dose response retest (AID 1117319); TR-FRET GST-Vif / biotin-A3G peptide binding; higher % means a stronger effect; test concentration not given here; strong numbers were not always called active; one-dose inhibition, %; IC50 in µM for titrated hits; actives 0.57% (n = 260,000);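 active = above the screen mean plus three standard deviations and confirmed in dose response; inconclusive = results disagree or hit not tested in dose response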;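 note: Vif residues 1-94 fused to GST binding biotinylated APOBEC3G peptide 110-148; 0% = full assay without inhibitor and 100% = GST in place of GST-Vif; retest series ran down from 100 µM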
Bfl-1 A1 inh: inhibitors of the anti-apoptotic protein A1, read as caspase activation; MEF A1-2A-BIM cells, Caspase-Glo 3/7 luminescence, 3 h; percent of clofoctol response, vehicle zero; caspase activation, % (concentration not given with the values); actives 0.066% (n = 330,000);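 active = over half of replicate activation scores above 10%, or exactly half above 10 with the replicate mean above 10; inconclusive = replicate mean below 10 yet half the replicates above 10; inactive = over half of replicates below 10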;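 note: wells of about 30 µL received 50 nL stock; many hits fall short of the cut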
T cruzi repl: T. cruzi replication inhibition | T. cruzi beta-gal in NIH3T3, luminescence, 90 h | inhibition, % (test concentration not listed) | actives 1.4% (n = 300,000);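 active = mean inhibition across valid replicates above about 55%, limit read from the data; inconclusive = mean below that limit but half or more replicates reach it; inactive = mean below it, under half of replicates reach it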;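 note: signal also drops with host cell toxicity which is not excluded here; 0% = plate median of DMSO wells and 100% = zero luminescence signal; higher percent means less beta-gal luminescence so fewer parasites; stock transfer was 50 nL into about 50 µL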
Calb FLC: C. albicans growth modulation with fluconazole; C. albicans CaCi-2 (fluconazole-resistant clinical isolate) + fluconazole, Alamar Blue growth, 48 h; growth inhibition, % (no concentration beside the values); actives 0.57% (n = 300,000);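 active = most replicates above 75%; inconclusive = exactly half above 75%; inactive = most below 75%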;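 note: all wells also contain fluconazole at 8 µg/ml as a sub-toxic cotreatment; 0% = median of DMSO wells and 100% = median of geldanamycin control wells; wells of about 8 µL received 7.5 nL stock; the first replicate is given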
RanGTP-Imp inh: disruptors of Ran-importin-beta complex formation – biochemical, FRET, CFP-Ran, YFP-importin-beta, homogeneous, primary screen | cell-free CFP-Ran/YFP-importin-beta FRET ratio | inhibition, % (no concentration beside the values) | actives 1.1% (n = 300,000) | AID 2216;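 active = most replicates above 15%; inconclusive = exactly half above 15%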;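 note: 0% = DMSO wells and 100% = Ran loaded with GDP instead of GTP; wells of about 40 µL received 100 nL stock; the first replicate is given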
LANA-H2B inh: blocks KSHV LANA binding to histone H2A/H2B; Q9QR71; cell-free LANA-H2A/H2B peptide, fluorescence polarization; inhibition, % (concentration not given with the values); actives 0.6% (n = 320,000); in the data active = inhibition mostly above about 10%, no sharp cut-off; inactive = mostly below about 6.7%;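 note: stock transfer was 7.5 nL into about 10 µL; 0% = median of vehicle wells and 100% = median of positive control wells; one replicate is shown; the record names a cut of 25% in any replicate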
Target sequence (Q9QR71 whole entry, looked up): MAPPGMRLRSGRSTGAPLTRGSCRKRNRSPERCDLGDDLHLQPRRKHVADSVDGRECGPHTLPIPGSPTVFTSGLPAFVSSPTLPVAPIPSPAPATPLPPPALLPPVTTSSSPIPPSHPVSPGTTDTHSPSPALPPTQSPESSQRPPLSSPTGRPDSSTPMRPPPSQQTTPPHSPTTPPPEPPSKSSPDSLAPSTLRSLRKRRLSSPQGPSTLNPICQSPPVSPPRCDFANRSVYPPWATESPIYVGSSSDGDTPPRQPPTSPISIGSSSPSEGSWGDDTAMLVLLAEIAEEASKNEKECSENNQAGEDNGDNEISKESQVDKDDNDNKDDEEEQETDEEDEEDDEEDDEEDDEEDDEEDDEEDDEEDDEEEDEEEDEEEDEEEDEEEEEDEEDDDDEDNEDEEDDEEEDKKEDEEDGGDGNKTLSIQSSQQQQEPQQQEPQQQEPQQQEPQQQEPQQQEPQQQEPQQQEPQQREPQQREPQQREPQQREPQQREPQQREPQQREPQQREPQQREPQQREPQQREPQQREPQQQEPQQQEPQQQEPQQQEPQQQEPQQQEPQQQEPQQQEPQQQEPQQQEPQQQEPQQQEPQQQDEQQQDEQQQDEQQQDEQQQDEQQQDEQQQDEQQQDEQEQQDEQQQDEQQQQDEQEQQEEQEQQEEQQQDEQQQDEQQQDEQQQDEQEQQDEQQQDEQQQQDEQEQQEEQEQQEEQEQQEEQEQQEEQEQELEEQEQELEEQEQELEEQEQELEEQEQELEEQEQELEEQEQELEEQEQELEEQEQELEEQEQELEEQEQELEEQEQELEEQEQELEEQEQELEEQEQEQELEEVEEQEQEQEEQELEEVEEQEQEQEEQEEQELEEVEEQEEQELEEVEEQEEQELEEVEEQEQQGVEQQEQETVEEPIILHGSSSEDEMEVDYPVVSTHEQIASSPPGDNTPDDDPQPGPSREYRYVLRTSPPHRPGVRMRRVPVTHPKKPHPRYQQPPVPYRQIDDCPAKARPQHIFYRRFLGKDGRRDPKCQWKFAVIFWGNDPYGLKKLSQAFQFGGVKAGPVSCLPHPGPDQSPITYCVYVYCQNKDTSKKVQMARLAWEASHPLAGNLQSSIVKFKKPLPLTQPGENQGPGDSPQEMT
Beta cell apopt: beta cell apoptosis inhibition; AID 435005; protection from apoptosis, % (concentration not given with the values); INS-1E cytokine-induced death, ATP luminescence, 48 h; percent of positive-control rescue, neutral wells zero; actives 0.8% (n = 300,000);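 active = all replicates at 75% or more, or half of them and the mean; inconclusive = half reach 75% but not the mean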;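 note: 0% = cytokine-treated negative control wells and 100% = positive control rescue; higher means more ATP so stronger rescue from cytokine killing; wells of about 40 µL received 100 nL stock; the first replicate is given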
* marks the source's active call; other numbers are inactive results; u = inconclusive; x = no result given; & = joins results of further samples.

SMILES	AF4-AF9 inh	Vif TR-FRET	Bfl-1 A1 inh	T cruzi repl	Calb FLC	RanGTP-Imp inh	LANA-H2B inh	Beta cell apopt
Cc1cc(C(=O)Nc2cc(C(C)(C)C)on2)c(C)o1	-0.1	1%	-6.1	x	-18	-1.6	1.0	4
O=C(Nc1nnc(-c2ccccc2F)s1)Nc1ccccc1F	x	-10%	-1.0	-17	-14	0.6	-0.4	-1
Cc1cc(C)c2nc(SCC(=O)Nc3ccc(S(=O)(=O)N4CCCC4)cc3)c(C)cc2c1	x	3%	0.6	26	-6	-1.8	-2.9	6
Cc1ccccc1NC(=O)c1ccc(C)c(S(=O)(=O)NCc2cccnc2)c1	0.9	x	-0.5	-3	-2	-1.7	9.0	-3
O=C(NCCNC(=O)c1ccccc1Br)c1cccnc1	1.1	9%	0.4	-1	x	x	2.9	3
C[C@@H]1NC(=O)/C(=C\c2ccccc2Cl)NC1=O	-1.2	-7%	-0.5	-22	-4	2.3	-3.4	2
O=C(OCC(=O)N1CCN(C(=O)c2ccco2)CC1)c1ccc(Cl)nc1	0.2	x	-0.3	x	x	x	-8.0	-1
CC(=O)NCCN1C(=O)C2C3c4ccccc4C(c4ccccc43)C2C1=O (stereo not given)	x	-7%	-0.5	0	-3	-0.3	2.6	-8
COc1cc(NC(=O)c2ccccc2-c2ccccc2)cc(OC)c1	3.2	-3%	-0.8	10	10	0.7	-1.8	-3
CCOC(=O)c1ccc(-c2c(C(=O)OCC)oc3cc(O)c(CC)cc3c2=O)o1	x	-2%	0.1	-17	0	-0.3	2.8	1
CCOC(=O)c1[nH]c2cc(OC)c(OC)cc2c1NC(=O)c1ccc2c(c1)OCO2	x	7%	-0.1	13	10	1.6	0.2	5
O=C(/C=C/c1ccco1)Nc1sc2c(c1C(=O)O)CCC2	2.0	1%	-11	-2	10	2.6	2.2	-1
Nc1ccccc1C#CC(=O)c1ccccc1	1.8	x	1.2	u	u	-6.5	0.4	91*
NC(=O)c1nsc(C(=O)N(Cc2ccccc2F)C(C(=O)NCC2CCCO2)c2ccc(F)cc2)c1N (stereo not given)	-0.2	x	0.5	-5	25	3.4	-5.4	2
COc1ccc(OCC(=O)Nc2ccc3c(c2)n(C)c(=O)n3C)cc1	0.2	-4%	-1.1	-6	0	1.9	-1.0	4
CN(Cc1ccccc1)S(=O)(=O)c1ccc(Cl)c(C(=O)OCC(=O)NC2CCS(=O)(=O)C2)c1 (stereo not given)	4.0	x	-0.4	x	x	x	6.9	-4
CCOC(=O)C1=CC[C@@H](c2ccco2)N(S(=O)(=O)c2ccc(C)cc2)[C@H]1C(=O)OCC	-12	x	-0.5	x	x	x	-1.1	-3
COc1ccccc1Nc1nc(N)nc(CSc2nnc(C)s2)n1	x	-1%	2.9	9	36	4.2	2.5	-3
CN1CCCN(C(=O)/C=C/c2ccc(Cl)cc2Cl)CC1	3.5	x	1.0	28	7	3.0	-7.0	-4
O=C(O)c1cc(-c2cc3ccccc3o2)nn1-c1ccccc1	0.0	x	-0.6	-25	40	u	0.1	-2
CCN(Cc1ccccc1)S(=O)(=O)c1csc(C(N)=O)c1	-1.3	x	-0.5	8	5	0.0	7.6	-2
COc1cc2ccccc2cc1-c1nnc(COc2ccccc2)o1	-0.2	1%	-0.4	-1	3	4.1	-0.1	-7
O=C(Nc1ccn(Cc2ccccc2)n1)c1cccc(F)c1	-1.1	x	x	-3	-11	-1.0	x	x
Cc1sc(C(C2C(=O)CC(C)(C)CC2=O)C2C(=O)CC(C)(C)CC2=O)cc1[N+](=O)[O-]	9.0	20%	0.7	-17	-7	-3.1	0.5	-2
O=C(NCc1nc2ccccc2[nH]1)C1=C[C@@H](c2ccc(Br)cc2)C[C@@H](OCc2ccc(CO)cc2)O1	-3.8&-1.4	x	-0.1	46	16	-1.3	3.5	-8
CN(C)Cc1ccccc1Sc1ccc(Br)cc1	x	-3%	-0.1	10	1	-0.4	2.0	-3
COc1cccc(C(=O)C2CN(c3ccccc3)CC2c2ccc(Cl)cc2)c1 (stereo not given)	-2.8	-3%	-0.3	48	-8	5.8	4.1	6
CCOC(=O)C1=C(COc2ccccc2)NC(=O)NC1c1ccc(Br)cc1 (stereo not given)	-3.1	x	-0.3	15	13	2.9	-2.0	9
CCc1ccc(-c2cc(C)no2)cc1S(=O)(=O)N1CCN(c2ccc(F)cc2)CC1	-8.9	x	1.7	41	14	3.7	-5.5	6
N#C/C(=C1\CCCN1)c1ccc2ccccc2n1	x	0%	-0.4	1	9	2.1	-5.2	-14
Cc1ccccc1NC(=O)CSc1nnc(-c2ccccc2)n1-c1ccccc1	x	-74%	0.5	-6	-9	-0.3	-2.0	4
Cc1cc(=O)oc(C)c1C(=O)Nc1cccnc1Cl	-2.8	9%	0.2	-5	2	-3.1	1.6	-4
CCOC(=O)Nc1oc2ccccc2c(=O)c1C	x	6%	0.2	-1	11	5.9	0.8	-1
Cc1ccc(S(=O)(=O)N2CCCC(C(=O)NCc3ccc4c(c3)OCO4)C2)cc1 (stereo not given)	2.0	-7%	0.5	4	-19	2.5	-0.7	-6
CC(=O)Nc1cccc(NC(=O)CSc2ncc(-c3ccccc3)[nH]2)c1	2.8	8%	0.2	0	7	1.7	-1.1	12
CCOc1ccc(S(=O)(=O)n2nnc3ccccc32)cc1C(C)C	x	9%	0.1	-3	3	1.6	3.4	0
COc1cc(C2Sc3ccccc3NC3=C2C(=O)OC3)cc(OC)c1OC (stereo not given)	x	u	-0.1	14	12	3.7	2.7	-5
COc1cc(/C=N/n2cnnc2)ccc1OC(=O)c1ccncc1	x	-3%	-0.5	4	-4	-1.7	1.2	-6
CC1CCN(c2nc3ccccc3nc2N2CCC(C)CC2)CC1	x	-5%	1.3	-23	-8	-2.2	-0.1	x
CC(C)c1ccc(-c2nc(N3CCCCC3)[nH]c(=O)c2C#N)cc1	x	-2%	-0.2	10	-8	0.1	-0.6	1
COc1cc(C(=O)OCc2cc(=O)c(O)co2)ccc1OC(F)F	4.9	x	0.4	7	102*	1.5	2.9	11
O=C(NCc1ccco1)c1ccccc1-c1ccccc1	x	5%	0.2	-8	-17	-2.2	0.4	-1
CC(=O)c1ccc(S(=O)(=O)N2Cc3ccccc3CC2C(=O)O)cc1 (stereo not given)	-15	16%	0.9	-2	-6	1.1	3.9	-3
CN(C)S(=O)(=O)N1CCN(C(=O)c2ccc3c(c2)OCO3)CC1	0.4	x	-0.1	-7	1	-0.5	2.7	-15
Cc1cnc(NC(=O)c2ccco2)s1	x	-10%	-5.2	-11	-7	5.4	3.0	-4
Cc1ccc(OCC(=O)N2CCC(N3CCCCCC3)CC2)cc1	x	4%	1.5	-14	-13	-0.3	-3.7	-2
C=CCC1=C/C(=C\c2c(N)n3nc(CC(=O)N4CCCC4)sc3nc2=O)C=C(OC)C1=O	2.6	x	0.2	25	14	-0.3	-5.7	-8
CCN(CCn1cccn1)C(=O)CC1C(=O)NCCN1CC1CCCCC1 (stereo not given)	0.9	-4%	0.5	0	-18	u	0.2	x
CC1(C)CC(=O)c2sc(NC(=O)CN3C(=O)CCC3=O)nc2C1	-1.3	u	0.6	-7	1	1.3	-1.8	-8
N#C/C(=C/c1ccc(N2CCCCC2)o1)C(=O)Nc1ccc2ccccc2c1	-0.3	x	x	29	u	1.3	x	x
O=C(Nc1ccccc1)c1cc(S(=O)(=O)N2CCSCC2)ccc1Cl	6.6	x	-0.1	-2	1	0.1	1.1	-7
C#CCOCCOCCOCCNc1nc(N2CCOCC2)nc(N2CCN(C(=O)CCCCCCCCCCNC(=O)Cn3cc(CCCCCN)nn3)CC2)n1	6.9	x	0.4	x	x	x	-4.6	-2
COc1ccc(C(=O)C2CCN(C(=O)Nc3ccccc3C)CC2)cc1	-3.9	x	0.4	4	5	0.1	0.0	-2
C=CCn1c(C)cc(C2=NNC(=NC(C)(C)C)SC2)c1C	4.7	u	-5.8	49	-4	3.0	0.9	25
O=C1/C(=C/c2ccco2)N=C(N2CCCCC2)N1c1ccccc1	x	24%	0.6	12	-31	9.3	-0.3	7
O=C(COC(=O)c1cc(Br)c(Br)s1)NCCC1=CCCCC1	x	3%	0.0	-9	-4	0.4	-0.6	-4
O=S(=O)(NCc1ccccc1)c1ccc2ccccc2c1	-3.3	-1%	0.6	21	3	1.9	7.6	-8
N#CCCN(C(=O)COC(=O)c1cc(=O)[nH]c2ccccc12)c1ccccc1	0.7	2%	0.1	x	x	x	-0.2	-9
O=C(CC1C(=O)NCCN1Cc1ccccc1C(F)(F)F)NCCN1CCCCC1=O (stereo not given)	-3.5	2%	x	-3	4	3.2	x	x
CCOC(=O)Cc1csc(NC(=O)CSc2nc(=O)[nH]c3c2CCC3)n1	-2.0	2%	0.9	-4	4	-2.7	0.0	0

Following part.
SMILES	AF4-AF9 inh	Vif TR-FRET	Bfl-1 A1 inh	T cruzi repl	Calb FLC	RanGTP-Imp inh	LANA-H2B inh	Beta cell apopt
CCCn1c2ccccc2c2nnc(SCC(=O)Nc3cc(C)on3)nc21	x	-18%	0.4	7	-23	3.6	-3.8	5
CC(OC(=O)c1cc2sccc2n1C)C(=O)NCc1ccc2c(c1)OCO2 (stereo not given)	x	-1%	0.7	7	-26	4.4	-2.6	4
COc1cccc(N2CCN(S(=O)(=O)c3ccc(-c4cnc(C5CC5)o4)cc3)CC2)c1	2.6	-3%	-0.4	18	2	1.0	3.7	12
S=c1[nH]nc(COc2ccccc2)n1/N=C/c1c(Cl)cccc1Cl	-2.0	-1%	0.9	-2	-8	-0.8	-0.4	x
O=C(Nc1cccnc1)c1cccs1	8.4	7%	-1.9	-49	-4	1.9	2.6	89*
CC(=O)NS(=O)(=O)c1ccc(NC(=O)c2cccc(S(=O)(=O)N3CCc4ccccc43)c2)cc1	-5.0	14%	0.3	-14	-4	0.8	1.1	-1
CCn1cc(S(=O)(=O)N2CCc3ccccc3C2)cn1	-0.4	0%	-0.6	-6	4	2.1	2.6	0
O=C(NNC(=O)c1cccc2ccccc12)c1ccc(-c2ccccc2)cc1	x	1%	-3.6	-7	-1	-0.2	-6.9	-4
Cc1ccc(CNC(=O)CCCC(=O)O)cc1	x	16%	-0.2	-9	16	5.5	-1.8	3
Cc1ccc2c(c1)S/C(=C\c1cccc[n+]1C)N2CCO	-3.3	-8%	0.7	46	-19	-6.6	-25	32
Cc1ccc(OCC(=O)Nc2ccc3oc(=O)ccc3c2)cc1	-0.1	x	0.3	-13	1	4.4	1.8	-3
COC(=O)c1c(NC(=O)CN2CCN(c3ccccc3)CC2)c2c(C)cccc2n1C	x	-4%	0.6	11	-1	0.7	5.3	-2
CNc1nnc(Sc2ncccc2[N+](=O)[O-])s1	1.9	-6%	0.2	-20	-2	3.6	-1.2	-4
Cc1cc(NC(=O)C(C)C)ncc1NC(=O)c1ccco1	-2.4	-3%	0.5	0	8	-0.8	3.7	-1
Cc1ccc(S(=O)(=O)Cn2nnnc2CN(Cc2ccco2)Cc2cccs2)cc1	x	u	0.9	15	-1	0.0	0.3	-2

Source: PubChem (several laboratories)

This is a random part of the collection, and some 4.3% of all compounds hit somewhere here.
